A1 apoptosis 2 – compounds inhibiting A1, read as caspase activation. caspase activation, % (test concentration not listed). 24,000 tested, under 10 active. MEF A1-2A-BIM cells, caspase-Glo luminescence, 3 h; percent of clofoctol response, DMSO zero; in the data active means caspase activation above about 5.9%;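 further: wells of about 30 µL received 50 nL stock; the first replicate is given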
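Material: mouse embryonic fibroblasts co-expressing A1 and BIM (A1-2A-BIM), primed for A1 dependence / Quantity: 2500 cells/well / Buffer or medium: RPMI-1640 growth medium with 10% FBS / Doses: 50 nL compound per well, pinned / Schedule: 3 h compound exposure at 37 °C / Signal: Caspase-Glo luminescence (DEVD substrate) / Measure: Caspase-3/7 activation, seen as rise in luminescence signal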
Starred values were filed as active, the others as inactive. Only part of the results is shown; the hit share may differ from the screen's.

SMILES: C[C@@H]1CCCCO[C@@H](CN(C)C(=O)Nc2ccccc2)[C@H](C)CN([C@H](C)CO)C(=O)c2cc(NC(=O)Nc3ccc(F)cc3)ccc2O1
  A1 apoptosis 2: -1.0

SMILES: C[C@@H]1CCCCO[C@H](CN(C)Cc2ccc(Cl)c(Cl)c2)[C@@H](C)CN([C@H](C)CO)C(=O)c2cc(NS(=O)(=O)c3ccc(Cl)cc3)ccc2O1
  A1 apoptosis 2: -1.6

SMILES: COc1cc(OC)c(/C=N/NC(=O)c2cccc(C(=O)NO)c2)c(OC)c1
  A1 apoptosis 2: 0.4

SMILES: C[C@H](CO)N1C[C@H](C)[C@@H](CN(C)Cc2ccc3c(c2)OCO3)OCCCC[C@H](C)Oc2ccc(NC(=O)c3ccccc3)cc2C1=O
  A1 apoptosis 2: 1.3

SMILES: C[C@H](CO)N1C[C@H](C)[C@H](CN(C)S(=O)(=O)c2ccc(F)cc2)Oc2c(NS(=O)(=O)c3ccc(F)cc3)cccc2C1=O
  A1 apoptosis 2: 0.6

SMILES: COc1ccc(NC(=O)Nc2cccc3c2O[C@H](CN(C)S(=O)(=O)c2ccc(Cl)cc2)[C@H](C)CN([C@H](C)CO)C3=O)cc1
  A1 apoptosis 2: 0.0

SMILES: COCCCN1C(=O)[C@@]2(Cc3ccccc31)c1ccccc1C(=O)N(C1CCCCC1)[C@H]2c1ccc(CO)cc1
  A1 apoptosis 2: 0.8

SMILES: C[C@@H]1CN([C@H](C)CO)C(=O)Cc2cc(NC(=O)Nc3ccc4c(c3)OCO4)ccc2O[C@@H]1CN(C)C(=O)Nc1cccc2ccccc12
  A1 apoptosis 2: 1.8

SMILES: C[C@@H]1CN([C@@H](C)CO)C(=O)Cc2cc(NC(=O)c3ccncc3)ccc2O[C@H]1CN(C)S(=O)(=O)c1cccs1
  A1 apoptosis 2: -0.1

SMILES: C[C@@H]1CN([C@H](C)CO)C(=O)c2cccc(NC(=O)c3ccncc3)c2O[C@H]1CN(C)Cc1ccc(Cl)c(Cl)c1
  A1 apoptosis 2: -0.7

SMILES: COc1ccc(CN(C)C[C@@H]2OCCCC[C@@H](C)Oc3ccc(NS(=O)(=O)c4ccc(Cl)cc4)cc3C(=O)N([C@H](C)CO)C[C@H]2C)cc1
  A1 apoptosis 2: 0.5

SMILES: Cc1noc(C)c1NC(=O)N(C)C[C@@H]1OCCCC[C@@H](C)Oc2ccc(NC(=O)Cc3ccccc3)cc2C(=O)N([C@@H](C)CO)C[C@@H]1C
  A1 apoptosis 2: 0.3

SMILES: C[C@@H]1CN([C@@H](C)CO)C(=O)Cc2cc(NC(=O)CCC(F)(F)F)ccc2O[C@@H]1CN(C)C(=O)Nc1cccc2ccccc12
  A1 apoptosis 2: 0.2

SMILES: C[C@H]1CN([C@@H](C)CO)C(=O)c2cc(NC(=O)Nc3ccc(F)cc3)ccc2O[C@H]1CN(C)Cc1ccc(C(=O)Nc2ccccc2N)cc1
  A1 apoptosis 2: -0.4

SMILES: C[C@H](CO)N1C[C@H](C)[C@@H](CN(C)CC2CCCCC2)Oc2c(NC(=O)CCCCCC(=O)Nc3ccccc3N)cccc2C1=O
  A1 apoptosis 2: 0.4

SMILES: C[C@@H]1CN([C@H](C)CO)C(=O)c2cccc(NC(=O)c3cnccn3)c2O[C@H]1CN(C)CC1CC1
  A1 apoptosis 2: 0.0

SMILES: CC(C)OC(=O)N(C)C[C@H]1OCc2cnnn2CCCC(=O)N([C@@H](C)CO)C[C@H]1C
  A1 apoptosis 2: -0.9

SMILES: C[C@H](CO)N1C[C@H](C)[C@H](CN(C)Cc2ccc3c(c2)OCO3)Oc2ncc(-c3cc4ccccc4o3)cc2C1=O
  A1 apoptosis 2: -1.6

SMILES: COc1ccc(S(=O)(=O)N(C)C[C@@H]2Oc3c(NC(=O)c4cnccn4)cccc3C(=O)N([C@H](C)CO)C[C@H]2C)cc1
  A1 apoptosis 2: 0.2

SMILES: C[C@H]1CCCCO[C@@H](CN(C)Cc2ccc(C(F)(F)F)cc2)[C@@H](C)CN([C@@H](C)CO)C(=O)c2cc(NS(=O)(=O)c3cccs3)ccc2O1
  A1 apoptosis 2: -0.1

SMILES: C[C@H](CO)N1C[C@H](C)[C@@H](CN(C)Cc2ccc3c(c2)OCO3)OCCCC[C@H](C)Oc2ccc(NC(=O)c3ccncc3)cc2C1=O
  A1 apoptosis 2: -0.8

SMILES: O=C1O[C@@H](c2ccccc2)[C@@H](c2ccccc2)N2[C@@H](c3ccc(O)cc3)[C@]3(C(=O)Nc4ccc(C#CC5(O)CCCCCC5)cc43)[C@@H](C(=O)N3CCN(c4ncccn4)CC3)[C@H]12
  A1 apoptosis 2: -0.5

SMILES: COc1ccc(NC(=O)N(C)C[C@H]2Oc3ccc(NC(=O)CCN4CCOCC4)cc3C(=O)N([C@@H](C)CO)C[C@@H]2C)cc1
  A1 apoptosis 2: -0.2

SMILES: COc1ccc(NC(=O)N(C)C[C@@H]2OCCCC[C@@H](C)Oc3ccc(NC(=O)NC4CCCCC4)cc3C(=O)N([C@@H](C)CO)C[C@H]2C)cc1
  A1 apoptosis 2: -0.3

SMILES: C[C@H]1CN([C@@H](C)CO)C(=O)c2cc(NC(=O)CCCCCC(=O)Nc3ccccc3N)ccc2O[C@H]1CN(C)CC1CCCCC1
  A1 apoptosis 2: 0.4

SMILES: Cc1ccc(S(=O)(=O)N(C)C[C@H]2Oc3ccc(NS(=O)(=O)c4ccc(F)cc4)cc3C(=O)N([C@@H](C)CO)C[C@@H]2C)cc1
  A1 apoptosis 2: 0.9

SMILES: C[C@H]1CN([C@@H](C)CO)C(=O)Cc2cc(NS(=O)(=O)c3ccc(F)cc3)ccc2O[C@@H]1CN(C)C(=O)Nc1ccc(F)cc1
  A1 apoptosis 2: 0.7

SMILES: C[C@H]1CN([C@@H](C)CO)C(=O)Cc2cc(NC(=O)CCN3CCOCC3)ccc2O[C@@H]1CN(C)Cc1ccc(C(=O)Nc2ccccc2N)cc1
  A1 apoptosis 2: -0.9

SMILES: Cc1ccc(S(=O)(=O)N[C@@H]2CCCN(Cc3ccc(OCCO)cc3)C2)cc1
  A1 apoptosis 2: 0.3

SMILES: Cc1noc(C)c1NC(=O)N(C)C[C@H]1Oc2ccc(NC(=O)Nc3ccc(F)cc3)cc2C(=O)N([C@H](C)CO)C[C@@H]1C
  A1 apoptosis 2: 0.2

SMILES: C[C@H]1CCCCO[C@H](CN(C)S(=O)(=O)c2ccccc2)[C@@H](C)CN([C@@H](C)CO)C(=O)c2cc(NS(=O)(=O)c3cn(C)cn3)ccc2O1
  A1 apoptosis 2: 0.4

SMILES: Cc1noc(C)c1NC(=O)Nc1ccc2c(c1)C(=O)N([C@@H](C)CO)C[C@@H](C)[C@H](CN(C)C(=O)NC(C)C)O2
  A1 apoptosis 2: 0.2

SMILES: C[C@@H]1CCCCO[C@H](CN(C)S(=O)(=O)c2ccc(Cl)cc2)[C@@H](C)CN([C@@H](C)CO)C(=O)c2cc(NC(=O)Cc3ccccc3)ccc2O1
  A1 apoptosis 2: -1.0

SMILES: C[C@@H]1CCCCO[C@@H](CN(C)S(=O)(=O)c2ccc(F)cc2)[C@H](C)CN([C@H](C)CO)C(=O)c2cc(NC(=O)Cc3ccccc3)ccc2O1
  A1 apoptosis 2: 2.1

SMILES: COc1ccc(S(=O)(=O)Nc2ccc3c(c2)C(=O)N([C@H](C)CO)C[C@@H](C)[C@@H](CN(C)C)OCCCC[C@H](C)O3)cc1
  A1 apoptosis 2: -1.5

SMILES: Cc1ccc(S(=O)(=O)Nc2ccc3c(c2)C(=O)N([C@@H](C)CO)C[C@H](C)[C@@H](CN(C)Cc2ccc(C(F)(F)F)cc2)OCCCC[C@H](C)O3)cc1
  A1 apoptosis 2: -0.6

SMILES: Cc1ccc(S(=O)(=O)N[C@@H](Cc2ccccc2)C(=O)NCCN=[N+]=[N-])cc1
  A1 apoptosis 2: 0.9

SMILES: C[C@@H]1CN([C@@H](C)CO)C(=O)Cc2cc(NC(=O)Nc3ccc4c(c3)OCO4)ccc2O[C@H]1CN(C)C(=O)NC1CCCCC1
  A1 apoptosis 2: 0.9

SMILES: C[C@H]1CN([C@@H](C)CO)C(=O)c2cc(NC(=O)CCCN(C)C)ccc2O[C@@H]1CN(C)C(=O)Nc1cccc2ccccc12
  A1 apoptosis 2: -0.6

SMILES: CNC[C@H]1OCCCC[C@@H](C)Oc2ccc(N(C)C)cc2C(=O)N([C@@H](C)CO)C[C@H]1C
  A1 apoptosis 2: 0.5

SMILES: COc1ccc(S(=O)(=O)N(C)C[C@@H]2Oc3ccc(NC(=O)CCC(F)(F)F)cc3CC(=O)N([C@H](C)CO)C[C@H]2C)cc1
  A1 apoptosis 2: -0.5

SMILES: CCO[C@H]1OC(C(=O)N2CCN(Cc3ccc4c(c3)OCO4)CC2)=C[C@@H](c2ccc(Br)cc2)[C@@H]1CCCO
  A1 apoptosis 2: -0.1

SMILES: C[C@@H]1CCCCO[C@H](CN(C)C(=O)Nc2ccc3c(c2)OCO3)[C@H](C)CN([C@@H](C)CO)C(=O)c2cc(NC(=O)C3CCCCC3)ccc2O1
  A1 apoptosis 2: 0.0

SMILES: C[C@@H]1CN([C@@H](C)CO)C(=O)Cc2cc(NC(=O)CCC(F)(F)F)ccc2O[C@H]1CN(C)CC1CC1
  A1 apoptosis 2: 1.8

SMILES: Cc1noc(C)c1S(=O)(=O)Nc1ccc2c(c1)C(=O)N([C@H](C)CO)C[C@@H](C)[C@H](CN(C)S(C)(=O)=O)O2
  A1 apoptosis 2: 0.6

6 of the compounds above, comma-delimited.
SMILES,A1 apoptosis 2
Cc1noc(C)c1S(=O)(=O)Nc1ccc2c(c1)C(=O)N([C@H](C)CO)C[C@@H](C)[C@H](CN(C)S(C)(=O)=O)O2,0.6
C[C@@H]1CCCCO[C@H](CN(C)C(=O)Nc2ccc3c(c2)OCO3)[C@H](C)CN([C@@H](C)CO)C(=O)c2cc(NC(=O)C3CCCCC3)ccc2O1,0.0
C[C@@H]1CN([C@@H](C)CO)C(=O)Cc2cc(NC(=O)CCC(F)(F)F)ccc2O[C@H]1CN(C)CC1CC1,1.8
Cc1noc(C)c1NC(=O)Nc1ccc2c(c1)C(=O)N([C@@H](C)CO)C[C@@H](C)[C@H](CN(C)C(=O)NC(C)C)O2,0.2
C[C@@H]1CN([C@@H](C)CO)C(=O)Cc2cc(NC(=O)Nc3ccc4c(c3)OCO4)ccc2O[C@H]1CN(C)C(=O)NC1CCCCC1,0.9
Cc1ccc(S(=O)(=O)N[C@@H](Cc2ccccc2)C(=O)NCCN=[N+]=[N-])cc1,0.9

(next part)
SMILES: C[C@H](CO)N1C[C@H](C)[C@H](CN(C)C(=O)Nc2ccccc2)OCCCC[C@H](C)Oc2ccc(NC(=O)C3CCCCC3)cc2C1=O
  A1 apoptosis 2: 1.4

SMILES: COc1ccc(NC(=O)Nc2ccc3c(c2)C(=O)N([C@H](C)CO)C[C@@H](C)[C@H](CN(C)S(=O)(=O)c2cn(C)cn2)OCCCC[C@@H](C)O3)cc1
  A1 apoptosis 2: 0.9

SMILES: O=C(O)CCCCCCC(=O)N/N=C/c1cc(F)ccc1O
  A1 apoptosis 2: -0.7

SMILES: C[C@@H]1CN([C@H](C)CO)C(=O)Cc2cc(NC(=O)Nc3ccc(F)cc3)ccc2O[C@H]1CN(C)C(=O)Nc1ccc2c(c1)OCO2
  A1 apoptosis 2: 0.4

SMILES: C[C@H](CO)N1C[C@H](C)[C@@H](CN(C)S(=O)(=O)c2ccc(F)cc2)OCCCC[C@H](C)Oc2ccc(N(C)C)cc2C1=O
  A1 apoptosis 2: -1.1

SMILES: C[C@@H]1CN([C@@H](C)CO)C(=O)c2cc(NS(=O)(=O)c3ccc(Cl)cc3)ccc2O[C@H]1CN(C)C(=O)NC1CCCCC1
  A1 apoptosis 2: -0.4

Assay outcomes from PubChem.
